RanGTP-Imp inh – inhibitors of RanGTP-importin-beta interaction, primary screen, biochemical, FRET, CFP-Ran, YFP-importin-beta, homogeneous | Ran GTPase (GTP-bound) - importin-beta complex | cell-free CFP-Ran/YFP-importin-beta FRET ratio | inhibition, % (concentration not given with the values) | actives 1.1% (n = 300,000) | AID 2216, 2009;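 active = most replicates above 15%; inconclusive = exactly half above 15%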;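 also: 0% = DMSO wells and 100% = Ran loaded with GDP instead of GTP; wells of about 40 µL received 100 nL stock; the first replicate is given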
FGF22 binding – binders of human FGF22 protein, primary screen, FGF22 synaptogenesis inhibitor project, biophysical, thermal shift, single point. Fibroblast growth factor 22 (Homo sapiens), Q9HCT0. recombinant FGF22 thermal shift, SYPRO orange fluorescence; percent of sucrose octasulfate shift, DMSO zero. calls only at 9.99 µM. actives 1.5% (n = 340,000). AID 651658, 2012;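 active = melting point raised past a set limit in the mean and every replicate; inconclusive = no clear call; three in four hits are not shown here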
Target sequence (Q9HCT0 whole entry, looked up): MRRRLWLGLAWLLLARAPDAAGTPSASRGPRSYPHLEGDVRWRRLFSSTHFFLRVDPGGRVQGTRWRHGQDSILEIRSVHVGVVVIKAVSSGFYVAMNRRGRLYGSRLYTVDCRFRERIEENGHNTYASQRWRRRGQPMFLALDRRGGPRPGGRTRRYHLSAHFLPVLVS
UCH37 DUB inh – inhibitors of human UCH37 deubiquitinase, primary screen, biochemical, Ub-AMC cleavage, fluorescence | AID 588478, 2011 | inhibition, % (no concentration beside the values) | purified proteasome/UCH37 | actives 0.33% (n = 330,000);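 active = mean of two replicates above 20%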;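 also: 0% = compound-free wells with enzyme and 100% = wells lacking proteasome; stock transfer was 100 nL into about 20 µL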
Target sequence (Q9Y5K5 whole entry, looked up): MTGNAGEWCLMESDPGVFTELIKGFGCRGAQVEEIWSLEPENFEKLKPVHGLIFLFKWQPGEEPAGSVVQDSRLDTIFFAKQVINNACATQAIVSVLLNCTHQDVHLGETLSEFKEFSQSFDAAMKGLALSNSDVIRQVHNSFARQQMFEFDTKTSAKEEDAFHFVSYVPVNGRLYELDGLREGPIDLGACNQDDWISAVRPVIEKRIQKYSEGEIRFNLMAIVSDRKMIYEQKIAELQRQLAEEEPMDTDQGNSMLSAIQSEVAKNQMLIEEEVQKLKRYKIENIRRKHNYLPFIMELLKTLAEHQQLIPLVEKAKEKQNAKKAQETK
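System: Proteasome-associated human UCH37 deubiquitinase; Input: 0.15 nM proteasome in added enzyme buffer; Also added: Ub-AMC substrate from 1 µM stock; Incubation: 30 min compound-proteasome preincubation then 25 min substrate reaction, room temperature; Detection: fluorescence, ex 355 nm, em 460 nm; Read-out: % inhibition of Ub-AMC cleavage fluorescence; Benchmarks: no-proteasome and no-compound wells.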
E coli growth – E. coli growth inhibition, primary screen, OD600 | Escherichia coli growth, 23 h; hits give low values | OD600 absorbance (test concentration not listed) | actives 0.21% (n = 330,000);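 active = OD600 absorbance below the run mean of sample wells minus 3.6 SD, in any replicate, cut at about 0.56 in these data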;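 also: stock transfer was 300 nL into about 60 µL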
Vif TR-FRET – inhibitors of Vif binding to APOBEC3G peptide, primary screen, biochemical, TR-FRET, GST-Vif 1-94, biotin-A3G peptide, dose response retest (AID 1117319); Virion infectivity factor (Human immunodeficiency virus type 1 group M subtype B (isolate …; TR-FRET GST-Vif / biotin-A3G peptide binding; higher % means a stronger effect; test concentration not given here; strong numbers were not always called active; one-dose inhibition, %; IC50 in µM for titrated hits; actives 0.57% (n = 260,000);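 active = above the screen mean plus three standard deviations and confirmed in dose response; inconclusive = results disagree or hit not tested in dose response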;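 also: Vif residues 1-94 fused to GST binding biotinylated APOBEC3G peptide 110-148; 0% = full assay without inhibitor and 100% = GST in place of GST-Vif; retest series ran down from 100 µM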
AF4-AF9 inh – inhibitors of AF4 peptide binding to AF9, primary screen, biochemical, AlphaScreen, biotin-AF4 peptide, FLAG-AF9, single point. Protein AF-9 (Homo sapiens), P42568. actives 0.47% (n = 350,000). inhibition, % at 10 µM;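 active = every replicate reaching a set inhibition limit, whatever the replicate mean, cut at about 25% in these data; inconclusive = mean inhibition reaches that limit but some replicates miss it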;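 also: 0% = plate neutral control median and 100% = total signal loss; the record names both 10 and 1 µM as test concentration; the first replicate is given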
HNF4A DNA FP – change in binding of human HNF4A to DNA, primary screen, biochemical, fluorescence polarization, FITC-DNA; activity change, % at 10 µM; 1 h; actives 0.3% (n = 360,000); Hepatocyte nuclear factor 4-alpha (Homo sapiens), P41235; in the data active = activity change above about 30%, passing the limit was not always enough;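 also: controls were the assay level and a saturating level of protein; the project sought stronger binding though the title names inhibitors; some compounds called inactive have numbers as strong as hits; positive values seem to mean higher polarization but the record does not say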
Target sequence (P41235 whole entry, looked up): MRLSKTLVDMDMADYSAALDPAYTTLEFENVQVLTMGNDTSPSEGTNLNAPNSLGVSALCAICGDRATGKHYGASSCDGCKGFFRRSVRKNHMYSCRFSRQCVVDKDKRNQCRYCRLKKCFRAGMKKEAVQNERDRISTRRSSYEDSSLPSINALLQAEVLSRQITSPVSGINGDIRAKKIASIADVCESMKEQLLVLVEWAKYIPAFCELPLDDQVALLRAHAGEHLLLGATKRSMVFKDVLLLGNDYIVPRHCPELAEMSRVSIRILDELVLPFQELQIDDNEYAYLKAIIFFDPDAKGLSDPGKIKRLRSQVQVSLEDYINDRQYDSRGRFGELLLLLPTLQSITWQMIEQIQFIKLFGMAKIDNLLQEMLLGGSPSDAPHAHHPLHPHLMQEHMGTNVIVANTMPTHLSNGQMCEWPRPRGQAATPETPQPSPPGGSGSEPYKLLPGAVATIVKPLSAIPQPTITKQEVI
* marks the source's active call; other numbers are inactive results; i = inactive; ? = inconclusive; . = no result given; & = joins results of further samples.

SMILES	RanGTP-Imp inh	FGF22 binding	UCH37 DUB inh	E coli growth	Vif TR-FRET	AF4-AF9 inh	HNF4A DNA FP
CC1=C(C(=O)Nc2ccc([N+](=O)[O-])cc2)C(c2cccc(C(F)(F)F)c2)NC(=S)N1c1ccccc1 (stereo not given)	-1.9	.	8.1	0.65	0%	.	-2.9
O=C(C(=O)N1CCc2ccccc2C1)N1CCc2ccccc2C1	2.0	i	.	.	.	-1.6	.
O=c1cc(-c2ccccc2O)nc(-c2ccccc2)[nH]1	1.7	i	7.0	0.71	.	-4.7	0.2
CCOc1ccc(N(CC(=O)Nc2ccc(C)cc2C)S(C)(=O)=O)cc1	4.3	i	0.8	0.63	.	2.3	-3.0
Cc1cc(CNC(=O)COC(=O)C2CC3CCCC(C2)C3=O)cc(C)c1O (stereo not given)	.	i	0.4	0.71	.	-1.7	2.0
CC(/C=N/n1c(-c2ccc(Cl)cc2)n[nH]c1=S)=C\c1ccco1	?	i	.	.	28%	-1.9	-0.5
O=C(O)c1ccccc1C(=O)OCCCc1ccncc1	3.5	i	10	0.71	.	-2.7	3.2
COc1ccc(CCN(Cc2cc3cccc(C)c3n3nnnc23)C(=O)c2ccncc2)cc1OC	2.5	.	0.3	0.65	-4%	.	.
OC(COc1c(F)cc(Br)cc1F)CN1CCOCC1 (stereo not given)	0.8	i	0.4	0.67	-2%	-3.2	0.9
CCn1nc(NC(=O)COC)c2cc3cc(C)ccc3nc21	?	i	-42	0.69	.	-4.6	3.0
CCCCN(C(=O)c1cc(OC)c(OC)c(OC)c1)C1=CC2CCC(C1)N2C (stereo not given)	3.7	.	-0.4	0.72	8%	.	-2.5
CCN(CC)S(=O)(=O)c1ccc(NC(=S)NC(=O)C(C)C)cc1	0.2	i	2.1	0.69	0%	-5.3	1.2
CSc1ccccc1NC(=O)C(C)N1C(=O)c2ccccc2S1(=O)=O (stereo not given)	2.3	i	-2.3	0.71	.	1.1	1.4
COc1ccc(NC(=S)NCc2ccccc2)c(OC)c1	2.1	i	0.1	0.7	.	2.1	2.5
Cc1ccc(NC(=O)C2C3CCC(O3)C2C(=O)O)cc1C (stereo not given)	3.9	i	-2.1	0.71	.	-8.7	0.8
C#CCOCCOCCOCCNc1nc(N2CCN(C(=O)[C@H](CCCCN)n3cc([C@@H](N)CC(C)C)nn3)CC2)nc(N2CCN(C(=O)[C@H](CCCCN)n3cc([C@@H](N)CC(C)C)nn3)CC2)n1	2.6	.	4.6	.	12%	.	15
COc1ccc(N2CCN(C(=O)c3ccncc3)CC2)cc1	0.8	.	3.6	0.71	6%	.	0.4
COc1ccc([C@H]2/C=C\CN(C(=O)C3CC3)[C@@H](C)C(=O)N2Cc2ccc(F)cc2)cc1	-3.4	i	1.5	.	.	1.8	-4.1
COc1ccc(S(=O)(=O)NCc2ccc3c(c2)OCO3)cc1C(=O)O	0.3	.	4.6	0.69	3%	.	-1.2
O=C1CCCN2N=C(SCC(=O)Nc3ccc(Cl)cc3)SC2=N1	-1.4	i	3.5	0.67	.	-8.8	1.0

3 compounds already listed, sorted by their value in Vif TR-FRET, largest number first:
SMILES | RanGTP-Imp inh | UCH37 DUB inh | Vif TR-FRET | AF4-AF9 inh
COc1ccc(S(=O)(=O)NCc2ccc3c(c2)OCO3)cc1C(=O)O | 0.3 | 4.6 | 3% | .
CCN(CC)S(=O)(=O)c1ccc(NC(=S)NC(=O)C(C)C)cc1 | 0.2 | 2.1 | 0% | -5.3
OC(COc1c(F)cc(Br)cc1F)CN1CCOCC1 (stereo not given) | 0.8 | 0.4 | -2% | -3.2

(cont.)
SMILES	RanGTP-Imp inh	FGF22 binding	UCH37 DUB inh	E coli growth	Vif TR-FRET	AF4-AF9 inh	HNF4A DNA FP
O=C1C(Nc2ccccc2)=C2CCCC=C2N1c1ccccc1	-0.1	i	2.8	0.73	3%	-0.6	5.1
O=C(C1=C[C@H](c2ccc3c(c2)OCO3)C[C@H](OCc2ccc(CO)cc2)O1)N1CCOCC1	1.8	i	-28	.	19%	-1.3&1.2	4.2
COc1ccc(NS(=O)(=O)c2cccc(C(=O)NNC(=O)c3cc(C)oc3C)c2)cc1	1.1	i	1.5	0.66	0%	5.0	0.6
COc1ccc(NC(=O)CN2CCCC2)cc1	-0.9	i	0.5	0.65	3%	2.4	1.1
O=C(c1cccc(Cl)c1)N1CCC2CC1c1cc(-c3ccccc3)ccc12 (stereo not given)	.	i	.	.	3%	-0.4	-0.3
Cc1c(NC(=S)Nc2cccc(Cl)c2)c(=O)n(-c2ccccc2)n1C	0.0	i	6.0	0.67	-18%	.	-1.1
Cc1cccc(NC(=S)NC2CCCC2)c1	22	.	2.0	0.68	.	.	4.8
Cc1nc2c(OCc3ccc(C(F)(F)F)cc3)cccn2c1N(C)CC1CC1	.	i	.	.	.	5.7	-1.9
CCCS(=O)(=O)Nc1c(C(=O)O)[nH]c2ccc(OC)cc12	5.4	i	-125	0.68	2%	-17	-0.7
CCOC(=O)Cn1c(=NC(=O)C(C)C)sc2c(C)cc(C)cc21	1.4	i	4.4	0.69	13%	-6.3	0.7
CC1CCCC/C1=N/Nc1ccc([N+](=O)[O-])cc1[N+](=O)[O-] (stereo not given)	1.1	.	.	.	4%	.	-2.1
COC(=O)[C@@H]1C[C@@H]2CC[C@@H](O)C[C@@H]2N1Cc1ccc(C(F)(F)F)cc1	1.0	i	3.3	.	.	-3.9	6.6
CN1CCSc2ccc(C(=O)NCc3ccccc3)cc21	-0.4	i	-89	0.67	.	-4.2	0.9
Cc1cc(NC(=O)Nc2ccccc2[N+](=O)[O-])n(C)n1	-2.1	i	3.8	0.59	29%	-2.5	-2.8
COc1ccc(-c2cc(-c3cccs3)c(C#N)c(SCC(=O)NCc3ccccc3)n2)cc1	2.4	.	-29	0.76	-30%&0%	.	-0.4
CCN1CCN(c2ncnc3c2cnn3-c2ccc(Cl)cc2)CC1	5.0	i	5.3	0.7	.	0.0	-0.3
CCOC(=O)C1(CCc2ccccc2)CCN(C(=O)CN2CCOC2=O)CC1	2.6	i	1.4	0.67	-5%	-0.2	-1.0
COc1ccc(-c2cc(C(=O)Nc3cc(C)n(Cc4ccc(Cl)cc4)n3)no2)cc1OC	-1.6	i	-3.7	0.71	23%	-2.6	6.2
Cc1ccc(-c2nnn(CC(=O)Nc3ccc4nn(-c5ccccc5)nc4c3)n2)o1	-2.0	.	-23	0.69	-6%	.	1.7
COc1ccc2nc(NC(=O)C(NS(=O)(=O)c3cccs3)C(C)C)sc2c1 (stereo not given)	?	.	-0.9	0.71	0%	.	4.3
CCOP(=O)(OCC)/C(=N/OC(=O)c1cccc([N+](=O)[O-])c1)C(N)=O	3.1	i	.	.	0%	.	-7.5
CC1(NC(=O)CSc2nnc(-c3ccco3)n2Cc2ccccc2)CCS(=O)(=O)C1 (stereo not given)	.	i	1.9	0.66	.	-2.7	2.6
COc1cc2c(-c3ccc4[nH]ccc4c3)c(-c3ccc(C#N)cc3)oc(=O)c2cc1OC	.	i	-31	0.66	.	-0.6	1.4
COc1ccc(C(=O)NCCNC(=O)c2cnccn2)cc1OC	0.8	i	2.1	0.7	.	-4.1	1.0
Cc1ccc(CN2CCN(/N=C/c3ccco3)CC2)c(C)c1	-0.5	.	.	.	6%	.	-2.3
C=CCn1c(SCC(=O)Nc2cc(C)ccc2OC)nnc1-c1ccco1	-1.4	.	-1.0	0.73	4%	.	0.8
Cn1nnnc1SCc1cc(=O)n2ccsc2n1	-2.5	.	2.6	0.72	9%	.	2.8
COc1ccccc1N(CC(=O)Nc1ccc(Br)cc1F)S(=O)(=O)c1cccs1	.	i	-2.6	0.71	-5%	-4.6	7.3
Cc1cc(=O)oc2c3c(cc(OCC(=O)NCc4ccccc4)c12)OC(C)(C)CC3	1.2	i	-254	0.76	.	-1.6	6.8
COc1ccc(OC(=O)COc2ccccc2C)cc1	1.2	i	5.9	0.66	.	-4.4	-2.1
CCOC(=O)NC(=O)CSc1ccc(C)cc1C	-0.4	i	1.8	0.73	?	-2.8	3.1
Cc1noc(C)c1NC(=O)N(C)C[C@H]1OCc2cnnn2CCCC(=O)N([C@H](C)CO)C[C@H]1C	.	i	.	.	.	-0.4&-3.9	0.3
O=C(COC(=O)C1CCN(c2ccc(C(F)(F)F)cn2)CC1)Nc1cccc(F)c1	-2.3	i	2.1	0.66	9%	-1.3	3.1
COc1cc([C@H]2c3[nH]c4ccccc4c3C[C@H]3C(=O)N4[C@@H](c5cc(OC)c(OC)c(OC)c5)c5[nH]c6ccccc6c5C[C@H]4C(=O)N23)cc(OC)c1OC	2.0	.	1.5	.	20%	.	-0.4
CC(=O)Nc1nonc1NC(=O)CSc1nc2ccccc2o1	2.5	.	2.9	0.66	15%	.	7.3
O=C(C[C@H]1CC[C@H]2[C@@H](COC[C@@H](O)CN2C(=O)c2cnccn2)O1)NCc1ccc(Oc2ccccc2)cc1	.	i	.	.	.	-6.7	-1.4
CCOC(=O)C1=CNS(=O)(=O)NC1c1ccc(OC(C)=O)cc1 (stereo not given)	.	i	-9.0	0.68	0%	-0.8	1.2
CCOc1cc(C(C(=O)NCC2CCCO2)N(C(=O)Cn2nnc3ccccc32)c2ccc(OC)c(OC)c2)ccc1O (stereo not given)	-0.2	i	6.1	0.72	-3%	-1.6	0.0
c1coc(-c2nnc(-c3cccs3)o2)c1	0.3	.	-122	0.65	-2%	.	-1.7
O=Cc1c[nH]c2ccc(S(=O)(=O)N3CCOCC3)cc12	7.9	i	0.7	0.66	23%	-4.4	0.6
Nc1ncc(C(=O)O)c(-c2ccccc2)n1	.	i	3.4	0.67	-7%	-2.0	-2.3
Cc1ccc2nc(-c3ccc(C#N)cc3)c(Cc3cccc(Cl)c3)n2c1	.	i	.	.	.	-5.5	3.7
Cc1ccc(OCC(=O)Nc2cccc(-c3nnc(-c4ccccc4)o3)c2)cc1	?	.	-1.9	0.69	?	.	-3.0
N#Cc1c(NCCO)ccc([N+](=O)[O-])c1NCCO	1.3	i	11	0.68	1%	2.3	-0.1
O=C(CSCc1ccccc1)Nc1ccccc1C(=O)Nc1ccc(C(=O)O)cc1	0.8	i	2.9	0.67	-3%	-2.4	-2.2
CCNS(=O)(=O)c1ccc(NC(=O)c2c(-c3ccccc3)noc2C)cc1	-4.1	i	3.0	0.71	17%	1.3	-12
C=CCc1c(C)nc(C)nc1N/N=C/c1ccc([N+](=O)[O-])cc1	-1.6	.	.	.	12%	.	6.5
CCN(CC)c1ccc(C(=O)OCC(=O)Nc2cccc(S(=O)(=O)NC3=NCCCCC3)c2)cc1	-4.9	.	6.5	0.71	16%	.	-3.6
CC1(C)CN(c2ccc(-c3ccnc4ncnn34)cc2)C1=O	4.6	i	i	0.7	2%	0.0	-2.4
CCOC(=O)CN1C(=O)/C(=C/c2ccc(Cl)cc2)Oc2ccccc21	1.7	i	i	0.68	.	0.0	1.7
Cc1cc(C)c(OCC(=O)Nc2ccc(S(=O)(=O)N3CCOCC3)cc2)c(C)c1	-2.2	i	3.1	0.75	.	1.8	2.1
O=C(CCN1C(=O)/C(=C/c2ccc(F)cc2)SC1=S)NCCc1cnc[nH]1	4.4	i	8.7	0.71	.	9.6	6.2

From PubChem

The list is partial; rates above refer to the full screens.
